Yeast UUG start: modulators of start codon recognition fidelity in yeast. S. cerevisiae UUG-firefly luciferase reporter, luminescence/redox ratio. activity score, % at 18.7 µM. 350,000 tested, 0.13% active. AID 602363;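 active means replicate mean at a twofold rise or more, about +100% in these data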;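 further: firefly luciferase made from a UUG start codon reports start codon fidelity; reporter light over untreated wells divided by growth signal over untreated wells; some hits fall short of that in this replicate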
Rce1 inh: blocks yeast Ras-converting enzyme; Q03530; yeast membranes, quenched prenylated peptide cleavage fluorescence; calls only; 290,000 tested, 0.27% active; AID 2563;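 active means fall in fluorescence gain of 50% or more versus controls, with final raw signal at or below 3038400; inconclusive means same 50% fall but final raw signal above 3038400; inactive means fall in fluorescence gain under 50%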;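 further: plate controls were neutral control wells for no effect and wells lacking membranes for full effect; tested at 10 µM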
Target sequence (Q03530 whole entry, looked up): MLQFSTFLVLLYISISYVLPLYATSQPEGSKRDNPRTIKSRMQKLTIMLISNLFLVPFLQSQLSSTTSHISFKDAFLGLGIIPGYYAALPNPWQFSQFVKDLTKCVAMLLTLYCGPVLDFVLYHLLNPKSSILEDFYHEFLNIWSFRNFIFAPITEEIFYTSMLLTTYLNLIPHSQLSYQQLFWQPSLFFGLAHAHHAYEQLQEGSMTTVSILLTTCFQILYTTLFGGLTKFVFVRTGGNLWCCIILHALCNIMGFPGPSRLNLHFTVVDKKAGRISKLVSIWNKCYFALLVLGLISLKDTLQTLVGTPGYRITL
eIF4H FP inh: inhibitors of RNA binding by human eIF4H | inhibition, % at 35 µM | 290,000 tested, 0.94% active | eIF4H fluorescence polarization binding assay;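 active means 50% or more with normal probe brightness, or confirmed in later tests; inconclusive means above 50% with abnormal brightness, or retests that disagree; inactive means below 50% or failed in later tests; about a fifth of its hits are not listed in these tables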;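 further: calls also rest on retests at 20 µM and on dose response follow-up; 0% = protein and probe with vehicle and 100% = probe without protein; strong numbers were not always called active; many hits fall short of the cut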
MT1-MMP act inh: inhibitors of human MT1-MMP activation; P50281; HT1080 RFP-PRO-GFP cells, GFP/RFP ratio fluorescence, overnight; percent of plate control window, DMSO zero; GFP/RFP ratio change, % at 20 µM; 360,000 tested, 0.061% active; AID 651647;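 active means GFP/RFP ratio change of at least 30% with cell ATP level not reduced by more than half and red fluorescence within 50% of control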; further: strong numbers were not always called active
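Assay system: RFP-PRO-GFP reporter HT1080 cells; read-out basis: GFP/RFP fluorescence ratio; benchmarks: DMSO wells and RFP-L50D-GFP cells; doses: 20 µM single dose, 1% DMSO; schedule: overnight cell settling, then overnight compound exposure, 37 °C, 5% CO2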
CSC inhib: cancer stem cell inhibition; 300,000 tested, 1.1% active; cancer stem cell-like cells viability, luminescence; inhibition, % at 7.5 µM; AID 2717;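 active means mean at 75% or more and at least half the replicates too; inconclusive means mean and replicates disagree; tested in HMLE shEcad cells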;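 further: 0% = median of negative and 100% = median of positive control wells; the first replicate is given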
PABP FP inh: blocks human PABP binding to poly(A) RNA | P11940 | fluorescence polarization | inhibition, % at 35 µM | 290,000 tested, 1% active;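 active means 50% or more with normal probe brightness, or confirmed in later tests; inconclusive means above 50% with abnormal brightness, or retests that disagree; inactive means below 50% or failed in later tests; about a fifth of its hits are not listed in these tables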;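 further: calls also rest on retests at 20 µM and on dose response follow-up; controls were probe without protein and protein plus probe with vehicle; some compounds called inactive have numbers as strong as hits; many hits fall short of the cut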
Target sequence (P11940 whole entry, looked up): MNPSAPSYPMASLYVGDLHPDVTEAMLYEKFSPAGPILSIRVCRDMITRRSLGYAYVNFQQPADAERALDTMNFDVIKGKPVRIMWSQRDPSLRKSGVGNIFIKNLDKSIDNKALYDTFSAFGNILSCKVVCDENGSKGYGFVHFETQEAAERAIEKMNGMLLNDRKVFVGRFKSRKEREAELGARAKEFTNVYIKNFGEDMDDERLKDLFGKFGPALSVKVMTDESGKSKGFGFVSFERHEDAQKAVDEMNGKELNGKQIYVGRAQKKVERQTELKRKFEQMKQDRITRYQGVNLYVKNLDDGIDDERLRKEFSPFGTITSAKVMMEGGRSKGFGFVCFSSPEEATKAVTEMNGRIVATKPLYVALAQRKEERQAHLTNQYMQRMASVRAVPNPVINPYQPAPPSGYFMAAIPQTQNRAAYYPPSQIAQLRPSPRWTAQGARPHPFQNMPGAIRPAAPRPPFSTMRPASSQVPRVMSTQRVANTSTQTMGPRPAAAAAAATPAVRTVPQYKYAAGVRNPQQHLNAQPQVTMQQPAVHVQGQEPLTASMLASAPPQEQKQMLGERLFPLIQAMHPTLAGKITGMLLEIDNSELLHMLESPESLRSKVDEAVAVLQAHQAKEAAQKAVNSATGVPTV
Env fusion inh: HIV envelope-mediated fusion inhibition; HeLa-JRFL Env/CEM21 cell fusion, luciferase; inhibition, % at 12.3 µM; 360,000 tested, 1.1% active; AID 651610;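 active means mean replicate inhibition score of at least 50 and every replicate individually at or above 50; inconclusive means only one of the two criteria met; inactive means mean below 50 and not all replicates reaching 50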;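 further: 0% = plate neutral controls and 100% = maraviroc near 300 nM; one replicate is shown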
MT1-MMP act inh RFP: also measured in MT1-MMP act inh; calls as there; RFP signal change, %; measured here: RFP expression control read;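 0 = vehicle wells; hits needed this value within 50% of zero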
The depositor's hits bear a star; i = inactive; ? = inconclusive; nt = not tested or not shown.

SMILES | Yeast UUG start | Rce1 inh | eIF4H FP inh | MT1-MMP act inh | MT1-MMP act inh RFP | CSC inhib | PABP FP inh | Env fusion inh
Cc1ccc(NS(=O)(=O)c2ccc(-c3ccc(=O)[nH]n3)o2)c(C)c1 | nt | i | -12 | -2 | 2 | 0 | -4 | 11
CC1(C)N=C(SCC(=O)Nc2ccccc2)C(c2ccc(Cl)cc2)=N1 | -6 | i | -4 | 0 | -8 | 11 | 4 | 29
O=C(CN1CCCCC1)Nc1ccccc1NC(=O)CN1CCCCC1 | -17 | i | 26 | 4 | -1 | -24 | 17 | -110
CC(C)CC(=O)N1CCN(S(=O)(=O)c2ccc(F)cc2)CC1 | -10 | i | 6 | 8 | 3 | nt | 3 | 0
CCN(CC(=O)Nc1c(F)cccc1F)C(=O)c1cccnc1Sc1ccccc1 | -2 | i | nt | 0 | 5 | 13 | nt | -23
COCCNC(=O)CN(C(=O)Cn1nnc2ccccc21)c1ccccc1 | -7 | i | 3 | -1 | 3 | 0 | -8 | -56
CCCCOc1ccc(C2(C)NC(=O)N(C)C2=O)cc1 (stereo unspecified) | 14 | i | -6 | 0 | -2 | -12 | 2 | 0
Cc1cc(/C=C(\C#N)C(=O)NC2CCCCCC2)c(C)n1C | nt | i | 18 | -6 | -3 | -3 | 8 | -49
C=CCN(CC=C)CCCOc1ccc(C)cc1OC | nt | i | 10 | 2 | -10 | nt | 8 | 6
CCOC(=O)c1sc(NC(=O)c2cc(-c3ccccc3C)nc3ccccc23)c(C#N)c1C | nt | i | -1 | -9 | -29 | 89* | 1 | nt
CCO[C@H]1OC(C(=O)O)=C[C@@H](c2coc3ccccc3c2=O)[C@@H]1CCCO | -6 | i | nt | 4 | 2 | -3 | nt | -18
O=C(Nc1nn[nH]n1)c1cccc(Oc2ccccc2)c1 | nt | i | -5 | 4 | 3 | 2 | 29 | nt

Four entries already listed, sorted by heavy-atom count, smallest number first.
SMILES | Yeast UUG start | Rce1 inh | eIF4H FP inh | MT1-MMP act inh | MT1-MMP act inh RFP | CSC inhib | PABP FP inh | Env fusion inh
O=C(Nc1nn[nH]n1)c1cccc(Oc2ccccc2)c1 | nt | i | -5 | 4 | 3 | 2 | 29 | nt
CC(C)CC(=O)N1CCN(S(=O)(=O)c2ccc(F)cc2)CC1 | -10 | i | 6 | 8 | 3 | nt | 3 | 0
CC1(C)N=C(SCC(=O)Nc2ccccc2)C(c2ccc(Cl)cc2)=N1 | -6 | i | -4 | 0 | -8 | 11 | 4 | 29
CCN(CC(=O)Nc1c(F)cccc1F)C(=O)c1cccnc1Sc1ccccc1 | -2 | i | nt | 0 | 5 | 13 | nt | -23

(further entries)
SMILES | Yeast UUG start | Rce1 inh | eIF4H FP inh | MT1-MMP act inh | MT1-MMP act inh RFP | CSC inhib | PABP FP inh | Env fusion inh
CC(C)CN(C(=O)COC(=O)C12CC3CC(CC(C3)C1)C2)c1c(N)n(Cc2ccccc2)c(=O)[nH]c1=O | 16 | nt | nt | -51 | -36 | 23 | nt | 70*
O=C(C[C@H]1C/C=C\C[C@@H](Cc2ccc(F)cc2)C(=O)OC[C@@H](Cc2c[nH]c3ccccc23)NC1=O)NCCO | -8 | nt | nt | 0 | 0 | nt | nt | -21
CCOC(=O)C1CCN(C(=O)CCCCn2c(=O)[nH]c3ccccc3c2=O)CC1 | 8 | i | -8 | 0 | 6 | -1 | -6 | -37
COc1ccccc1OCC(=O)N1CCN(c2ccccc2OC)CC1 | -12 | i | -3 | -2 | 6 | -8 | -3 | nt
Cc1c(NC(=O)c2ccc(Cl)c(S(=O)(=O)N3CCCCC3)c2)c(=O)n(-c2ccccc2)n1C | -11 | i | -8 | 4 | 0 | -6 | -6 | 32
CC(OC(=O)Cc1ccc(Cl)cc1)C(=O)NCCC1=CCCCC1 (stereo unspecified) | nt | i | 2 | 0 | 4 | -14 | -20 | 20
COc1cc2cnc(-c3ccccc3)c(C(=O)c3ccc(OCc4ccccc4)cc3)c2cc1OC | -10 | nt | nt | 0 | -6 | nt | nt | 5
CCOC(=O)c1ccc(NC(=O)c2cccnc2)cc1 | -13 | i | 2 | 4 | -1 | -9 | 6 | -6
CN(C(=O)c1cccc(C#N)c1)c1nnc(C2CCCO2)s1 (stereo unspecified) | -18 | i | 3 | -3 | 5 | -4 | -4 | -31
COc1ccc(-n2nc(C(C)=O)c(=O)[nH]c2=O)cc1 | 0 | i | 2 | 0 | -6 | -2 | 4 | -5
CC(=O)NC(CC(C)C)C(=O)NC(CO)C(=O)NC(CCC(=O)O)C(=O)NC(C)C(=O)NC(CC(C)C)C(N)=O (stereo unspecified) | -8 | i | nt | -2 | 1 | -7 | nt | -10
CC1(C(=O)NS(=O)(=O)c2ccc(Br)cc2)CCN1C(=O)C/C=C/c1ccccc1 (stereo unspecified) | 12 | nt | nt | 10 | 6 | nt | nt | 8
COC(=O)[C@H](CC(C)C)NC(=O)Cn1cnc2c(SC)nc(N)nc21 | -19 | nt | nt | -2 | -2 | -17 | nt | 16
O=C(CSc1ncccn1)NCc1ccc(F)cc1 | -24 | i | -3 | 2 | 3 | -4 | 0 | -1
Cc1[nH]c2ccccc2c1C(=O)C(=O)NCc1ccco1 | 1 | i | -3 | 1 | -1 | -2 | 0 | -3
COc1cccc2sc(N3CCN(C(=O)c4ccc([N+](=O)[O-])o4)CC3)nc12 | 20 | i | nt | 5 | -5 | 6 | nt | nt
O=C(Nc1nnc(-c2ccco2)o1)c1ccc([N+](=O)[O-])s1 | nt | i | -2 | -2 | -3 | 46 | -3 | -10
Cn1c(SCCc2ccc([N+](=O)[O-])cc2)nccc1=O | -14 | i | nt | 8 | 5 | 25 | nt | -3
Cc1ccc(-c2nnc(NC(=O)c3ccc([N+](=O)[O-])o3)o2)c(C)c1 | 4 | i | nt | 1 | -5 | -1 | nt | nt
O=C(CN1C(=O)c2ccccc2C1=O)N1CCN(S(=O)(=O)c2ccccc2)CC1 | 9 | i | 10 | -4 | 7 | -10 | -6 | -3
Cn1ncc2c(Nc3ccc(-c4ccccc4)cc3)ncnc21 | nt | i | -2 | 6 | 2 | -10 | 1 | nt
CCc1ccccc1OCCCCCNCCO | -1 | i | -8 | 7 | 2 | 16 | 9 | 20
COc1ccc(C(=O)NCCc2nnc(SCC(=O)Nc3ccc(Br)cc3)n2C)cc1 | -9 | nt | -2 | 2 | -3 | -4 | 5 | 24
Cc1c(C(=O)N2CCN(c3ccc(F)cc3)CC2)oc2c1C(=O)CCC2 | -15 | i | -7 | 0 | 1 | 3 | 6 | 4
O=S(=O)(NCCc1cn2ccccc2n1)c1ccc2c(c1)CCCC2 | -17 | i | -6 | 10 | 4 | 8 | 1 | 21
CC(=O)C(Cc1ccccc1)NC(=O)COC(=O)CCN1C(=O)C2CC=CCC2C1=O (stereo unspecified) | 16 | i | nt | 0 | 5 | -14 | nt | -7
Cc1c(C(=O)NC(C)c2ccc(-n3ccnc3)cc2)cccc1[N+](=O)[O-] (stereo unspecified) | -17 | i | -6 | 4 | 0 | -9 | 18 | 3
Cc1cccc(CS(=O)(=O)c2ncc(CO)n2C)c1 | -7 | i | -2 | -3 | 1 | -1 | 16 | 17
O=c1[nH]c(N/N=C\c2ccc3c(c2)OCO3)nc2ccccc12 | -14 | i | 16 | 6 | 2 | -6 | -4 | i
Cc1ccc(-n2nc3c(c2NC(=O)C2CC2)CS(=O)(=O)C3)cc1C | -6 | i | 5 | 1 | 6 | -14 | 6 | 3
CCc1ccc(-c2cc(C(F)(F)F)n3nc(C(=O)Nc4cnn(Cc5ccccc5C)c4)cc3n2)s1 | -5 | i | 2 | 6 | 1 | 5 | 5 | -30
Cc1ccc(OCCN2CCN(CC(O)Cn3c4ccccc4c4ccccc43)CC2)cc1 (stereo unspecified) | nt | i | 6 | nt | nt | 90* | -3 | -13
CCCn1c(CN2CCN(C(C)=O)CC2)nc2cc(S(=O)(=O)N(C)C)ccc21 | -23 | i | 9 | 7 | 6 | -6 | 14 | 0
CC(=O)Nc1ccc(NC(=O)c2c(-c3ccccc3)noc2C)cn1 | -4 | i | -4 | -1 | 1 | -6 | -4 | -9
COc1ccc(OCCNC(=O)c2ccccc2OCC(=O)Nc2ccc(NC(C)=O)cc2)cc1 | -10 | i | 3 | 8 | -11 | nt | -5 | -30
O=S(=O)(c1ccc(Cl)cc1)N1CCCC1c1nc(-c2ccc(Cl)cc2)no1 (stereo unspecified) | -16 | i | 0 | 1 | 0 | 14 | -7 | ?
O=C(CCCc1nc(-c2ccccc2)no1)Nc1cccnc1 | -17 | i | -2 | 7 | 3 | 2 | 4 | -89
CCCCc1ccc(N=N/C(C(=O)Nc2ccc(NC(C)=O)cc2OC)=C(/C)O)cc1 | -7 | i | nt | 7 | -6 | 80* | nt | -7
CCN(CC)S(=O)(=O)c1cc(NC(=O)CSc2nnc(-c3cccs3)o2)ccc1C | -6 | i | -5 | 1 | 4 | -22 | -3 | nt
O=C(C[C@@H]1C/C=C/CCCC(=O)O[C@H](c2ccccc2)CNC1=O)N[C@H](CO)Cc1ccccc1 | -7 | nt | nt | -3 | -1 | -14 | nt | -78
COc1ccc(OC)c(NS(=O)(=O)c2ccc3c(c2)CCC(=O)N3)c1 | -13 | i | -2 | -1 | -1 | -12 | 5 | -13
CCc1cc(=O)[nH]c(SCc2cccnc2)n1 | -7 | i | -10 | -4 | 1 | -19 | 0 | nt
CC(C)(C)c1ccccc1OCCCCCn1ccnc1 | nt | i | -5 | -11 | -12 | 15 | ? | 9
COc1ccc(-n2c(Cc3cccn3C)nnc2SCC(=O)N2CCC(C)CC2)cc1 | -7 | i | 7 | 2 | 2 | 1 | 20 | 1
CCNC(=O)/C(=C\c1ccccc1)NC(=O)/C=C/c1ccccc1 | -4 | i | -4 | 2 | 0 | -5 | 7 | -24
COc1ccc(C2C(C(=O)c3ccco3)=C(O)C(=O)N2CC2CCCO2)cc1 (stereo unspecified) | -2 | i | -8 | -1 | 5 | -2 | 10 | 2
CN(C)CCNc1oc(COc2ccc(Cl)cc2Cl)nc1C#N | -20 | i | 30 | -8 | 4 | -15 | 62* | -32
C=CCn1c(=O)c(C(=O)NCCc2ccccc2)c(O)c2ccccc21 | -20 | i | 7 | -4 | -6 | 116* | 6 | -13
CCOC(=O)C1=C(N)OC2=C(C(=O)CCC2)C1c1cccnc1 (stereo unspecified) | -16 | i | -4 | 0 | -2 | -6 | 4 | nt
CCCN(c1ccc(C(C)C)cc1)S(=O)(=O)c1c(C)noc1C | -19 | i | -8 | -4 | -4 | 19 | -2 | 36
CC(=O)Nc1ccc(Oc2cc(C#N)c(C#N)cc2N2CCOCC2)cc1 | -10 | i | -4 | 3 | 4 | -2 | -7 | nt
Cc1[nH]c(=O)c(C#N)c(C)c1CCC(=O)Nc1cc(S(C)(=O)=O)ccc1Cl | -21 | i | -3 | -8 | -2 | -3 | 29 | -26
Cc1cccc(NS(=O)(=O)c2ccc3c(c2)Cc2cc(S(=O)(=O)Nc4cccc(C)c4C)ccc2-3)c1C | 21 | nt | 0 | -13 | -16 | 29 | 6 | nt
CCc1ccc(NC(=O)COc2ccc(/C=C(/C#N)c3nc4ccccc4[nH]3)cc2OC)cc1 | -10 | i | 30 | -4 | -4 | 4 | 31 | 5
CCOC(=O)c1c(NC(=O)CSc2nncs2)sc(C)c1-c1ccccc1 | nt | i | -3 | -11 | -14 | 44 | -7 | 17
O=C(NNC(=O)c1sccc1-n1cccc1)Nc1ccccc1 | nt | i | -4 | 1 | 3 | -8 | -2 | 6
O=C(/C=C/c1ccccc1)NCC(=O)N/N=C/c1ccco1 | -10 | i | 20 | 3 | 8 | 7 | 4 | -9
